# Bioassay records as filed in PubChem BioAssay.
# Mtb bLac sens: beta-lactam sensitization of Mtb H37Rv; actives 0.27% (n = 330,000); M. tuberculosis H37Rv growth with meropenem, percent inhibition; hits of this screen are not shown here; inhibition, % at 25 µM;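 active = about 74% or more and at least 40 points above the plate without the antibiotic, then above 30% in a dose series; inconclusive = first-round hits that could not be retested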;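 also: growth measured after seven days incubation then overnight dye step; 0% = bacteria only wells and 100% = bacteria with antibiotic; twin plates without the antibiotic show which effects depend on it; some results filed as inactive read as strong as hits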
# RecA splice inh: inhibitors of M. tuberculosis RecA intein splicing; P9WHJ3; cell-free RecA intein splicing, fluorescence; inhibition, %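 (about 9 µM by stock and volumes)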; actives 0.75% (n = 290,000); AID 2221; in the data active = inhibition above about 30%; inconclusive = no clear call, values can overlap the other calls;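 also: 0% = vehicle wells and 100% = reference inhibitor control wells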
# Target sequence (P9WHJ3 whole entry, looked up, canonical isoform): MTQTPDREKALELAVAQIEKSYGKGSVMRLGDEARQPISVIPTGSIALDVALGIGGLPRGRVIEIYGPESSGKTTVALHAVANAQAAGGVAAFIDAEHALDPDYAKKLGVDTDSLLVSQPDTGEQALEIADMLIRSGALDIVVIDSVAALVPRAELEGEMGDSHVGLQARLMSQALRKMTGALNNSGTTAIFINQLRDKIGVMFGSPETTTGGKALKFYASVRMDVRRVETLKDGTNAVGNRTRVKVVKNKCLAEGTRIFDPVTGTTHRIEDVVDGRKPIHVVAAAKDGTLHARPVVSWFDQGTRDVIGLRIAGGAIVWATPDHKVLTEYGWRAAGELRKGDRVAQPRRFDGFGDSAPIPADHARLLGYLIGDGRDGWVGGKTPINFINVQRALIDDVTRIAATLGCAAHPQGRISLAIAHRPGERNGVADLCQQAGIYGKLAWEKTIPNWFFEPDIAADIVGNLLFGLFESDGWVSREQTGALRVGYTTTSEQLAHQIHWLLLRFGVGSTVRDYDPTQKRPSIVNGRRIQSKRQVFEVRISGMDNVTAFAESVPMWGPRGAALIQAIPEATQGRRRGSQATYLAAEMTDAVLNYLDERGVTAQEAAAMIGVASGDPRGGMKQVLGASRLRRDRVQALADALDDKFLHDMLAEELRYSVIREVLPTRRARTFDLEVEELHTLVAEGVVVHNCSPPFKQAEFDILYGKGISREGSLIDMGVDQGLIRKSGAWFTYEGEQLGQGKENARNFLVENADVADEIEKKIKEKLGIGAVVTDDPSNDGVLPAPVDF
# Arbovirus anti: arbovirus infection inhibition; arbovirus infection cell-based antiviral screen; inhibition, % at 10 µM; actives 0.37% (n = 200,000);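 active = inhibition from about 30%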;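 also: bluetongue infection of BSR cells; cell survival read as ATP light after 72 h; 0% = infected wells without compound and 100% = uninfected wells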
# Mtb growth: M. tuberculosis H37Rv growth inhibitors, H37Rv strain (AID 1626); M. tuberculosis H37Rv growth inhibition; higher % means a stronger effect; inhibition, % at 10 µM, or IC50 in µM where a hit was titrated; actives 0.95% (n = 220,000);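 active = confirmed in a dose series; inconclusive = inhibition above 80% but not taken into the dose series; inactive = below 80% or under 30% at every dose of the series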;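 also: bacteria incubated seven days before Alamar blue readout; 0% = bacteria only wells and 100% = bacteria with antibiotic wells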
# YopH inh: inhibitors of Yersinia enterocolitica YopH tyrosine phosphatase; fluorescence Ex485/Em525; inhibition, %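 (about 10 µM by stock and volumes)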; actives 0.16% (n = 140,000);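 active = inhibition of 50% or more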;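 also: controls were vehicle for no effect and minimum signal wells for full effect; inactives centre near -20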
# * marks the source's active call; other numbers are inactive results; u = inconclusive; x = no result given. A portion of the library, so the mix of outcomes need not match the whole.
Compound,Mtb bLac sens,RecA splice inh,Arbovirus anti,Mtb growth,YopH inh
Cc1cc(C)n(-c2nc(NCC3CCCO3)c3c4c(sc3n2)COC(C)(C)C4)n1 (configuration not stated),62,0.6,-22,19%,-17
CC(NS(=O)(=O)c1ccc(OCC(=O)N2CCOCC2)c(Cl)c1)c1ccccc1 (configuration not stated),-2,-0.5,2,-3%,-3
O=C(NC1CCCCCCC1)c1ccccc1-c1ccccc1,98,-0.4,-9,57µM*,6
CCc1ccc(-n2cccc2/C=C2/C(=N)N3C(=NC2=O)SN=C3S(C)(=O)=O)cc1,-10,12,17,-2%,x
O=C(NC1CCCCC1)C1CCCN1C(=O)NCc1ccccc1 (configuration not stated),0,-1.4,5,-7%,-12
CC(=O)OC[C@H]1O[C@@H](n2ncc(=O)[nH]c2=O)[C@H](OC(C)=O)[C@@H]1OC(C)=O,-5,-1.4,60*,-5%,-27
O=C1c2ccccc2C(O)N1c1ccccc1 (configuration not stated),-7,-1.9,x,x,x
COc1ccc(N2CCN(C(=O)CCNC(=O)c3ccccc3)CC2)cc1,-1,x,4,3%,x

# Structural class, the entries above containing four or more nitrogen atoms.
Compound,Mtb bLac sens,RecA splice inh,Arbovirus anti,Mtb growth,YopH inh
Cc1cc(C)n(-c2nc(NCC3CCCO3)c3c4c(sc3n2)COC(C)(C)C4)n1 (configuration not stated),62,0.6,-22,19%,-17
CCc1ccc(-n2cccc2/C=C2/C(=N)N3C(=NC2=O)SN=C3S(C)(=O)=O)cc1,-10,12,17,-2%,x

# (cont.)
Compound,Mtb bLac sens,RecA splice inh,Arbovirus anti,Mtb growth,YopH inh
COc1ccc(CC(=O)N/N=C/c2cccn2-c2ccc([N+](=O)[O-])cc2)cc1OC,2,1.1,2,-4%,-26
NC(=O)C1CCN(c2ccc([N+](=O)[O-])cc2Cl)CC1,-7,-3.2,-2,4%,x
CN(C)CCCN(Cc1cc2cc3c(cc2[nH]c1=O)OCCO3)C(=O)NC1CCCCC1,-2,-3.6,x,1%,x
NC(=O)NC(=O)COC(=O)CCSc1ccccc1,3,-0.7,6,-3%,x
CCN1CCN(C(=O)/C=C/c2ccc(F)cc2)CC1,-11,-0.2,x,x,x
CCOC(=O)N1CCC(N2Cc3cccc(C(=O)Nc4cccc(F)c4)c3C2=O)CC1,-3,-1.2,3,6%,x
CCN(CC(=O)N1CCCCCC1)S(=O)(=O)c1ccc(C)cc1,-3,0.0,x,x,x
CCOC(=O)C(=O)Nc1ncc(Cl)s1,-5,3.5,x,-7%,x
CCCCCCCN(C(=O)CCl)c1ccccc1C,x,56*,18,7%,-8
O=C(N/N=C/c1ccc([N+](=O)[O-])o1)C(=O)Nc1ccc(C(=O)O)cc1,100,-8.8,x,-9%,x
CCN1CCN(CC(=O)Nc2ccc(N(C)C)cc2)CC1,-2,-1.7,x,x,x
Cc1ccnc(NCn2nnc3ccccc32)c1,3,-0.5,1,3%,-41
CCn1ncc(Br)c1C(=O)Nc1ccccc1C(=O)OC,9,x,x,-26%,-24
CC(C(=O)Nc1ccccc1C(F)(F)F)N1CCN(C)CC1 (configuration not stated),-1,1.4,x,x,x
CCN(CC)C(=O)c1ccc(/C=C/c2c[nH]c3ccccc23)[n+](C)c1,0,6.6,4,2%,2
Cc1ccc(N(C(=O)c2csnn2)C(C(=O)NC2CCCCC2)c2ccccn2)cc1 (configuration not stated),-8,-1.4,x,x,x
COc1ccc(C(=O)N/C(=C\c2ccccc2)C(=O)NCc2cccnc2)cc1,-2,-1.1,x,x,x
O=C(O)c1ccc(-n2c(/C=C/c3ccccc3)nc3ccccc3c2=O)cc1,5,2.5,x,x,x
COC(=O)c1[nH]c2ccccc2c1NS(=O)(=O)c1ccc(OC)cc1OC,6,0.5,-5,-3%,24
COc1ccccc1NC(=O)c1ccc(CSc2ccccc2)o1,9,2.5,x,x,x
CC(=C/c1ccco1)/C=N/NC(=O)CSc1nnc(SCc2ccc(C)cc2)s1,73,5.1,0,x,-11
CCCOc1ccc(-c2c(C(=O)N/N=C(\C)c3cccs3)nnn2-c2nonc2N)cc1,-1,1.7,x,x,x
O=C(NCCCO)C12CC3CC(CC(C3)C1)C2,0,1.9,x,-8%,-24
CC1CCN(CC(=O)Nc2ccccc2C#N)CC1,-6,0.3,-6,3%,41

# Continued, starting with the last two of the part before.
Compound,Mtb bLac sens,RecA splice inh,Arbovirus anti,Mtb growth,YopH inh
O=C(NCCCO)C12CC3CC(CC(C3)C1)C2,0,1.9,x,-8%,-24
CC1CCN(CC(=O)Nc2ccccc2C#N)CC1,-6,0.3,-6,3%,41
C=CCNC(=S)N1CCN(C2CCCCC2)CC1,-3,1.6,x,13%,x
CCc1nc2ccccc2c(=O)n1NC(=O)c1c(O)c2ccccc2n(CC)c1=O,-11,1.1,10,-2%,x
COc1ccc(Br)c(C(=O)NNC(=O)c2ccc(NS(=O)(=O)c3cccs3)cc2)c1,3,-4.4,x,x,x
CCNC(=O)COC(=O)CCC(=O)c1cccs1,8,-3.1,-3,0%,-12
COC(=O)c1ccc(-c2noc(CN3CCCC(CNC(C)=O)C3)n2)cc1 (configuration not stated),-6,1.0,0,-10%,x
CS(=O)(=O)c1nc(S(=O)(=O)c2ccc(Cl)cc2)c(N2CCOCC2)s1,-5,-6.4,x,x,x
Cc1ccc(N(C)C(=O)CN(C)S(=O)(=O)c2ccc3c(c2)n(C)c(=O)c(=O)n3C)cc1,6,-0.7,x,x,x
CC(C)n1c(=O)n(CC(=O)NCC2CCCO2)c(=O)c2c3c(sc21)COC(C)(C)C3 (configuration not stated),0,1.9,x,x,x
CCOc1c(C)cnc2c1c(=O)n(Cc1cccc(Cl)c1)c(=O)n2C,7,-2.1,x,x,x
CCOC(=O)C(C)Sc1nnc(-c2ccccc2O)n1-c1ccc(C)cc1 (configuration not stated),94,x,6,2%,-39
CCOC(=O)C1CCN(c2c(N3CCN(c4ccccc4OC)CC3)c(=O)c2=O)CC1,x,x,2,4%,-22
Cc1ccc(CS(=O)Cc2ccc(C(=O)N3CCN(c4ccc(F)cc4)CC3)o2)cc1 (configuration not stated),0,-0.4,x,x,x
CN1/C(=C\C(=O)CSc2nnc(N)s2)C(C)(C)c2ccccc21,0,0.9,-6,-3%,-27
CCOc1ccc(C(=O)C(C)OC(=O)C2CCN(c3ccc(C(F)(F)F)cn3)CC2)cc1 (configuration not stated),-8,7.1,x,x,x
O=C1Nc2ccc([N+](=O)[O-])cc2C1(O)N1CCCCC1 (configuration not stated),8,-0.7,6,-3%,-51
O=C(O)CCCCCNc1ncnc2ccc(Br)cc12,-10,1.4,3,-8%,x

# Copied from the list.
# Value for NC(=O)NC(=O)COC(=O)CCSc1ccccc1 in Mtb growth: -3%
# Value for CC(=C/c1ccco1)/C=N/NC(=O)CSc1nnc(SCc2ccc(C)cc2)s1 in Mtb bLac sens: 73

# (continued)
Compound,Mtb bLac sens,RecA splice inh,Arbovirus anti,Mtb growth,YopH inh
CCN(CC(=O)Nc1ccccc1OC)C(=O)Cn1cnc2ccccc2c1=O,-18,4.2,-2,5%,-6
CN(C)S(=O)(=O)c1ccc(C(=O)Nc2nnc(SCC(=O)NCC3CCCO3)s2)cc1 (configuration not stated),5,0.4,x,x,x
COc1ccc(CCNC(=O)CSc2nc3[nH]ncc3c(=O)n2-c2ccccc2Br)cc1OC,2,-1.1,-2,2%,x
CCOC(=O)c1c(-c2ccc(OC)cc2)csc1/N=C/C1C(=O)CCCC1=O,10,1.2,-9,7%,x
O=C(CSc1nnc(CNc2cccc(Cl)c2)o1)OC1CCCCC1,100,4.1,-4,0.66µM*,14
NC(=O)C1(N2CCCCC2)CCN(c2nc(-c3ccc(Br)cc3)cs2)CC1,-1,0.1,-8,7%,3
CC1CCC(NC(=O)c2ccc(/C=C3\Oc4ccccc4N(C)C3=O)cc2)CC1 (configuration not stated),x,-12,-29,u,-31
CC(C)N=C(NS(=O)(=O)c1ccc(Br)cc1)c1ccc(Cl)cc1,-3,-1.0,-6,-18%,x
CCCCNC(=O)COC(=O)c1ccc(N(C)C)cc1,5,-0.3,3,2%,x
COc1ccc2cc(C(=O)COC(=O)COc3ccc4c(C)cc(=O)oc4c3)ccc2c1,6,2.3,-5,-7%,-28
O=C(CSc1ccc2nnc(-c3cccnc3)n2n1)Nc1cccc(F)c1,u,0.9,x,x,x
COc1ccccc1CC(=O)Nc1cc(Cl)ccc1O,-2,3.4,10,-9%,-23
O=C(Nc1cccnc1)c1cccc(S(=O)(=O)N2CCCC2)c1,-1,2.1,-3,-5%,x
CNC(=O)c1c(O)c2cccc3c2n(c1=O)CC3,13,-4.4,x,-2%,1
COc1ccc(OCC(=O)Nc2ccccc2Cl)cc1,8,3.0,-13,7%,x
COc1ccc(-c2c(-c3ccc4c(c3)OCO4)noc2C)cn1,-2,5.8,x,x,x
CS(=O)(=O)N1CCC(C(=O)Nc2ccccc2Sc2ccccc2)CC1,-1,2.0,8,-8%,-19
Cc1cc(NC(=O)c2ccc(NC(=O)CC(C)C)cc2)no1,-24,-1.4,2,3%,-6
O=C(Cn1c(=O)n(CCC(=O)N2CCc3ccccc3C2)c(=O)c2ccccc21)NCC1CCCO1 (configuration not stated),x,-14,4,-2%,-45
O=C(CN1CCN(c2ccccn2)CC1)N1CCc2ccccc21,-3,-2.5,0,-16%,-10
Cc1ccnc(NS(=O)(=O)c2ccc(NC(=O)Cc3ccc(Cl)cc3)cc2)n1,5,-2.6,x,x,x
Cn1c(=O)n(Cc2ccco2)c(=N)c2c3c(sc21)CCC3,5,-0.3,-1,-4%,16
COc1cccc(/C=C/C(=O)OCC(=O)Nc2cccc(S(=O)(=O)N3CCCCC3)c2)c1OC,11,0.1,2,-1%,-6
CC1CN(CCn2cnc3c(N)ncnc32)CC(C)O1 (configuration not stated),0,-0.7,x,x,x
Cc1ccc(C2(C)NC(=O)N(CC(=O)Nc3ccc(-c4nc5ccc(C)cc5s4)cc3)C2=O)cc1 (configuration not stated),4,-26,x,-3%,x
COc1ccc(NC(=O)CN2C(=O)CSc3ccc(S(=O)(=O)N4CCC(C)CC4)cc32)cc1,4,-0.1,x,x,x
CCc1ccc(OCC(=O)Nc2ccc(CN3CCCCC3)cc2)cc1,-9,0.3,3,2%,-11
CC[C@@H](C)[C@H](CNC)NC[C@@H](Cc1cccc2ccccc12)NCCc1cccc(C(F)(F)F)c1,99,21,x,x,x
Cc1ccccc1Cn1c(=N)n(CC(=O)c2ccco2)c2ccccc21,-15,2.9,-20,11%,-35
COc1ccc(-c2ccc(-c3noc(-c4ccccc4)n3)c(OC)n2)cc1,89,-6.1,-8,3%,-114
C/C(=N\NC(=O)c1ccc(NS(=O)(=O)c2cccs2)cc1)c1ccc(C(C)(C)C)cc1,4,3.0,-16,7%,-21
COCc1cc(=O)[nH]c(Cc2c(Cl)cccc2Cl)n1,1,0.3,x,x,x
O=C(/C=C/Nc1ccc(F)c(F)c1)c1ccc(Br)cc1,18,-15,-7,7%,-10
O=C(NC(Cc1c[nH]c2ccccc12)C(=O)O)/C(=C\c1ccccc1)NC(=O)c1ccccc1 (configuration not stated),-5,1.1,x,x,x
O=C(CCN1C(=O)S/C(=C\c2ccccc2)C1=O)N1CCOCC1,2,-1.5,x,-4%,-34
CC(NC(=O)C(C)N1c2cccc3cccc(c23)S1(=O)=O)c1ccccc1 (configuration not stated),3,-2.1,x,x,x
COc1ccccc1-n1c(SCC(=O)Nc2cc(C)on2)nc2c([nH]c3ccccc32)c1=O,-7,13,x,x,x
O=C(NCCCN1CCCC1=O)c1ccc(S(=O)(=O)Nc2ccccc2F)cc1,3,-1.6,x,x,x
C[C@H](NC(=O)c1nc[nH]c1C(=O)N[C@@H](Cc1ccccc1)C(=O)OC(C)(C)C)C(=O)OCc1ccccc1,-9,2.9,x,x,x
C/C(=N\Nc1ccc(S(N)(=O)=O)cc1[N+](=O)[O-])c1cccnc1,-1,1.1,x,x,x
Cc1ncc(CN2CCCC(C(=O)c3cccc(OC(C)C)c3)C2)s1 (configuration not stated),-6,1.5,-5,0%,x
CCCCC[C@H](O)/C=C/[C@H]1CCC(=O)[C@@H]1CCCCCCC(=O)N1CCCCC1CO (some centres not stated),1,1.0,x,x,x
CN(CC(=O)Nc1cccc(F)c1)C(=O)c1ccc2c(c1)S(=O)(=O)N=C1CCCCCN12,-2,-0.2,x,x,x
O=C(Cn1ncc2c3ccccc3n(Cc3ccccc3)c2c1=O)NCCCN1CCOCC1,1,4.2,x,x,x
O=C(CNC(=O)c1cccs1)N=Nc1c(O)[nH]c2ccc([N+](=O)[O-])cc12,-3,16,x,x,x
